VDR inhibitor = Inhibitors of the vitamin D receptor (VDR): qHTS. AID 504847, 2011. VDR-SRC2-3 peptide fluorescence polarization, 2 h. Vitamin D3 receptor (Homo sapiens), P11473. 400,000 tested, 0.93% active. Potency, µM, without a hit: max response, negative = inhibition, actives largely listed as inhibitors; active = well fitted inhibition curve with a large enough effect; inconclusive = small, poorly fitted or top-dose-only effect, or another doubt; inactive = no such curve, though single readings can be large or run the other way; also: series mostly up to about 120 µM
Target sequence (P11473 whole entry, looked up): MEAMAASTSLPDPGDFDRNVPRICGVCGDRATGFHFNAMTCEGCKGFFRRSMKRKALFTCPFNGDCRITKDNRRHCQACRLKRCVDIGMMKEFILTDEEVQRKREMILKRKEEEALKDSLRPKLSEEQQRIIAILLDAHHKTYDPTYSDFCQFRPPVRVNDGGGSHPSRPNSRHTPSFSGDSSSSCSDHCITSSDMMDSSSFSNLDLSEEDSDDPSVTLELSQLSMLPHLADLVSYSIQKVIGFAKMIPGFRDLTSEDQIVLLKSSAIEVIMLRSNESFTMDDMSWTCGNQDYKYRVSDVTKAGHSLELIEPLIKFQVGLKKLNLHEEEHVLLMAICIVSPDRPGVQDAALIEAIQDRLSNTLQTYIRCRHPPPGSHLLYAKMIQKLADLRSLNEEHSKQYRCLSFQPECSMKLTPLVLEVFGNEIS
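Reagent solutions, kept cold and dark, are dispensed first; compounds are then pinned in at 23 nl, plates briefly spun, and incubated 2 h at ambient temperature. Inhibition of VDR–SRC2-3 peptide binding is read by fluorescence polarization.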
* hit, by the source's call; u = inconclusive. % is scaled to controls: 0 for no effect and ±100 for the full control effect; potency is read from the fitted curve at half-maximal effect. The list is partial, so the mix of outcomes need not match the whole.

Compound,VDR inhibitor
CCc1cccc(C)c1NC(=S)NCC(c1cccnc1)N1CCOCC1 (configuration not stated),0%
CCOc1ccc(CCNC(=O)CCCc2nnc3n(C)c(=O)c4sccc4n23)cc1OCC,1%
COc1cccc(CN2CCNC(=O)C2CC(=O)NCCN2CCCCC2=O)c1 (configuration not stated),-3%
Cc1cc(C(=O)NCc2ccc(S(N)(=O)=O)cc2)cs1,-14%
C/C(=N\Nc1nc(-c2ccccc2)cs1)c1cccs1,-15%
COc1ccc(NS(=O)(=O)c2ccc(O)c(C(=O)OCC(=O)N3CCCCC3)c2)cc1,-1%
O=C(O)Cc1cn(-c2ccccc2)nc1-c1ccccc1,10%
Cc1nn(CC(=O)NCCCN2CCCCC2)c(=O)c2cccn12,-13%
CCCc1cc(=O)n2c(nc3ccccc32)[nH]1,-8%
Cc1cc(C)c2cc(C#N)c(NCCOC(=O)c3ccccc3C)nc2c1,-16%
CNC(=O)c1cc(C(=O)c2ccc(Cl)cc2)c[nH]1,-7%
Cc1cc(OCC(=O)N2CCC(C(N)=O)CC2)c2c(C)c(C)c(=O)oc2c1,2%
O=C(NCc1cccnc1)C(=O)NCC1OCCCN1S(=O)(=O)c1ccccc1 (configuration not stated),18%
COC(=O)c1ccccc1NC(=O)n1cc(C)cn1,7%
COc1cc(C2c3c(oc4ccccc4c3=O)C(=O)N2c2nccs2)ccc1O (configuration not stated),3%
CCOc1ccc(Cl)cc1/C=N/NC(=O)c1ccccc1,1%
COCCn1c(SCC(=O)NC2CCCC2)nc2ccccc2c1=O,14%
O=S(=O)(NCc1ccc2c(c1)OCO2)c1ccc(F)c(F)c1,16%
Oc1ccc(-c2nc3ccc(Cl)cn3c2Nc2ccc(Cl)cc2)cc1,6%
N#CCOC(=O)[C@H](Cc1ccccc1)N1C(=O)c2ccccc2C1=O,0%
CC1=CC(C)(C)[N+](C)=CN1c1ccccc1,-11%
O=C(Nc1ccc(-c2nc3cc(NC(=O)c4cccs4)ccc3o2)cc1)c1cccs1,13%
CCC(C)[C@H]1COCCS(=O)(=O)N1Cc1ccc(C)cc1 (some centres not stated),-19%
CC1(C)Cc2nc3[nH]c(=S)[nH]c(=O)c3cc2CO1,-7%
COc1ccc(-c2nsc(NC(=O)c3oc4ccccc4c3C)n2)cc1,7%
Cc1ccc(OCCn2cc(C#N)c3ccccc32)cc1,9%
Cc1ccc(-n2c(C)cc(C(=O)C(=O)Nc3ccccc3)c2C)c(C)c1,18%
COc1ccc(F)cc1S(=O)(=O)Nc1cccc(C(=O)O)c1,-10%
C=CCn1c(Sc2ccccc2)nc2c1c(=O)[nH]c(=O)n2C,13%
CN1C[C@H]2CON(C)[C@H]2C[C@H]1c1cccc(-c2ccc(C#N)cc2)c1,5%

The list continues:
Compound,VDR inhibitor
COc1cc(CNC(=O)c2cc3ccccc3oc2=O)cc(OC)c1OC,10%
CC(C)NC(=O)CN(C(=O)CCC(=O)Nc1nccs1)c1ccc(C(C)C)cc1,1%
O=C(O)c1ccccc1-c1ccccc1C(=O)NNc1ccc([N+](=O)[O-])cc1,12%
CC1=C(C(N)=O)C(c2ccccn2)n2nc(SCc3ccccc3Cl)nc2N1 (configuration not stated),-7%
Cc1cc(=O)n2c(n1)NC(Nc1cccc(C)c1C)=NC2c1ccc(F)cc1 (configuration not stated),-17%
Cc1ccccc1NC(=O)c1ccc(F)c(S(=O)(=O)N(C)Cc2ccccc2)c1,7%
Cc1ccc2nc(SCc3cccc([N+](=O)[O-])c3)nc(C)c2c1,3%
COc1cc2c(cc1OC)C1(CCCC1)CNC2c1cccc([N+](=O)[O-])c1 (configuration not stated),0%
Cc1cccc(/N=C/C2=C(O)CC(C)(C)CC2=O)n1,1%
CC1(C2CC2)NC(=O)N(CC(=O)NCC(=O)Nc2ccc(F)c(F)c2F)C1=O (configuration not stated),6%
CCOc1ccc(-c2nnn(CC(=O)Nc3cc(OC)ccc3OC)n2)cc1OCC,-2%
COc1cc(-c2c(C#N)c(N)nc3c2CCCC3)cc(OC)c1OC,1%
CCC(=O)n1nc(-c2ccc(OC)cc2)nc1N,-8%
COC(=O)C(NC(=O)c1ccc(F)cc1)(Nc1nc(C)cs1)C(F)(F)F (configuration not stated),2%
CCOc1ccc(-c2cc(C(=O)NC(C)c3ccccc3)c3ccccc3n2)cc1 (configuration not stated),2%
O=C(Nc1sc2c(c1C(=O)NCC1CCCO1)CCCC2)c1cc(=O)c2ccccc2o1 (configuration not stated),7%
COc1ccc([N+](=O)[O-])cc1N(CC(O)CN1C(=O)NC(C)(C)C1=O)S(=O)(=O)c1ccccc1 (configuration not stated),0%
O=C(/C=C/c1ccco1)N(Cc1ccc(F)cc1)C1CCS(=O)(=O)C1 (configuration not stated),-10%
O=C(O)CCC(NC(=O)c1cncc(O)c1)C(=O)O (configuration not stated),20%
COCCn1nnnc1C(c1cc2ccc(OC)cc2[nH]c1=O)N1CCc2ccccc2C1 (configuration not stated),-7%
Cc1nnnn1/C(=C\c1ccccc1)C(=O)OCC(=O)N(C)C1CCS(=O)(=O)C1 (configuration not stated),1%
C[C@H](NC(=O)c1nc[nH]c1C(=O)NCc1ccccc1)C(=O)OC(C)(C)C,-5%
O=C(NCCC(=O)N1CCCCC1)c1ccc(Br)cc1,2%
CCOC(=O)N1CCC(NCCNC(=O)c2ccc(F)cc2)CC1,-10%
O=C(COc1cc(Cl)ccc1Cl)Nc1nnc(C2CC2)s1,0%
CCN(CC)C(=O)Cn1cnc2sc(C(=O)N3CCN(c4ccc(OC)cc4)CC3)c(C)c2c1=O,4%
CC(=O)Nc1ccc(-c2nnc(SCc3ccccc3C#N)n2C)cc1,1%
CC1CCCC(NC(=O)c2ccc3c(c2)N(Cc2ccccc2)C(=O)CS3=O)C1C (configuration not stated),16%
Cc1nnc(SCC(=O)c2ccccc2)n1Cc1ccccc1,-2%
CCC(CC)c1nc(C#N)c(NCc2ccccc2)o1,-8%

Next part; it opens with the five that closed the last part.
Compound,VDR inhibitor
CCN(CC)C(=O)Cn1cnc2sc(C(=O)N3CCN(c4ccc(OC)cc4)CC3)c(C)c2c1=O,4%
CC(=O)Nc1ccc(-c2nnc(SCc3ccccc3C#N)n2C)cc1,1%
CC1CCCC(NC(=O)c2ccc3c(c2)N(Cc2ccccc2)C(=O)CS3=O)C1C (configuration not stated),16%
Cc1nnc(SCC(=O)c2ccccc2)n1Cc1ccccc1,-2%
CCC(CC)c1nc(C#N)c(NCc2ccccc2)o1,-8%
OCCC1CN(Cc2cccn2-c2ccccn2)CCN1C1CCCCC1 (configuration not stated),-15%
COC(=O)c1nn(-c2cccc(Cl)c2)ccc1=O,16%
Cc1ccc(Oc2nc(-c3ccccc3)ncc2S(=O)(=O)c2ccc(C)cc2)cc1,17%
COc1cccc(N2CC(C(=O)Nc3nnc(SCC(=O)N4CCCC4)s3)CC2=O)c1 (configuration not stated),-24%
COc1cccc(CNC(=O)CCNC(=O)C2CCN(S(=O)(=O)c3ccc(F)cc3)CC2)c1,-9%
CNC(=S)N/N=C/c1ccc(N2CCOCC2)s1,-24%
COc1ccc(N2CCc3c(C)nc4c(OC)cccc4c32)cc1,12%
C/C(=N\NC(=O)CN1CCN(S(=O)(=O)c2ccc(C)cc2)CC1)c1cccnc1,-12%
Cc1ccc(N(CC(=O)N2CCN(c3cccc(Cl)c3)CC2)S(=O)(=O)c2c(C)noc2C)cc1,-9%
S=c1[nH]ncn1/N=C/c1ccc(N2CCOCC2)cc1,-6%
Cc1cc2nc3c(nc2cc1C)CCCC3,-20%
COc1ccc(CCNC(=O)Cn2nc(C)n3nc(-c4ccccc4)cc3c2=O)cc1OC,-3%
CCCC(=O)Nc1nc(CC(=O)OCC)cs1,-13%
Cc1ccc(-c2c(C)n([O-])c3c([n+]2=O)CCCCC3)cc1,-7%
Cc1ccc(CNC(=O)c2nnc(Cc3cccc(F)c3)o2)cc1,5%
O=[N+]([O-])C1C(c2ccccc2)=NOC1c1ccccc1O (configuration not stated),-1%
CCCc1cc(C(=O)Nc2ccc(Cl)cn2)cs1,6%
CC1CCN(C(=O)CSc2nc3c(cnn3-c3ccc(Cl)cc3)c(=O)[nH]2)CC1,0%
COc1ccc(C2C(C#N)=C(/N=C/N3CCN(C)CC3)OC3=C2C(=O)CC(C)(C)C3)cc1OC (configuration not stated),2%
C=CCOc1ccc(/C=N/NC(=O)C(=O)Nc2ccccn2)cc1OC,-5%
COc1ccc(OC)c(NC(=O)CS(=O)(=O)Cc2nc(-c3ccccc3C)oc2C)c1,4%
Cc1ccc(S(=O)(=O)N=C2SCCCS2)cc1,2%
CCOC(=O)N1CCN(C(=O)c2ccccc2NC(=O)c2ccc(C(C)(C)C)cc2)CC1,3%
CCN1C(=O)[C@@H]2[C@@H](c3ccc(-c4ccccc4)cc3)N3CCCC[C@@]3(C(=O)OC)[C@@H]2C1=O,7%
CC(C)CCNC(=O)c1cc(-c2cccs2)nc2ccccc12,1%
N#Cc1ccccc1NC(=O)C(=O)NCCc1csc(-c2ccc(F)cc2)n1,17%
COc1cccc(-c2nnc(SCC3CNC(=O)O3)n2-c2ccc(Cl)cc2)c1 (configuration not stated),-3%
C=CCn1c(CCNC(=O)c2cccs2)n[nH]c1=S,-23%
N#Cc1cc2c(nc1SCc1ccccc1)CCCC2,16%
O=[N+]([O-])c1ccc2c(c1)nc1n2CCSC1,5%

An excerpt of these results, with the structure last:
VDR inhibitor	structure
7%	CCN1C(=O)[C@@H]2[C@@H](c3ccc(-c4ccccc4)cc3)N3CCCC[C@@]3(C(=O)OC)[C@@H]2C1=O
1%	CC(C)CCNC(=O)c1cc(-c2cccs2)nc2ccccc12

3 compounds out of the list above, sorted by the value under VDR inhibitor, descending:
Compound,VDR inhibitor
COC(=O)c1nn(-c2cccc(Cl)c2)ccc1=O,16%
Cc1ccc(-c2c(C)n([O-])c3c([n+]2=O)CCCCC3)cc1,-7%
Cc1cc2nc3c(nc2cc1C)CCCC3,-20%

(cont.)
Compound,VDR inhibitor
CC(=O)Nc1ccc(S(=O)(=O)NC2(C(F)(F)F)NC(=O)N(Cc3ccccc3)C2=O)cc1 (configuration not stated),3%
CCC(=O)NC(c1ccc(C)cc1)c1cc(Cl)c2cccnc2c1O (configuration not stated),-8%
COc1ccc(C(=O)c2coc3ccc(O)c(CN4CCCCC4)c23)cc1,7%
CCOc1ccc(NC(=O)N2CCN(c3ccc(Cl)c(Cl)c3)CC2)cc1,0%
O=C1CNC(=S)N1C(CO)c1ccccc1 (configuration not stated),-5%
c1ccc(NN=C2c3ccccc3-c3ccccc32)cc1,1%
Cc1cc(C)nc(SCC(=O)N/N=C/c2cccn2-c2ccc(O)cc2)n1,4%
COc1ccc(Cl)cc1C(=O)Nc1nnc2n1CCS2,7%
CCOc1ccc(CNS(=O)(=O)c2ccc(-c3cc(C(F)(F)F)on3)s2)cc1,16%
CCOc1ccc(OCC(=O)Nc2c(C(=O)Nc3ccc(C)cc3)oc3ccccc23)cc1,-5%
COCCNC(=O)CN1C(=O)CCn2nc(-c3cn(C)c4ccccc34)cc21,1%
OCCC1CN(Cc2cccc3nccnc23)CCN1Cc1ccc(F)c(F)c1 (configuration not stated),-3%
O=C(Nc1ccc(C(=O)OCc2cc(=O)n3c4c(sc3n2)CCCC4)cc1)c1ccc(Cl)cc1,12%
Cn1c(=O)c2c(ncn2Cc2cccc(Cl)c2)n(C)c1=O,-3%
CCOC(=O)NC(=O)c1cn(-c2ccc(OC)cc2)c(=O)[nH]c1=O,11%
CCN(Cc1cnn(C)c1)Cc1nc(C(c2ccccc2)c2ccccc2)no1,-24%
CCOC(=O)N/N=C\c1ccc(OC(=O)c2ccco2)cc1,-7%
COc1ccc(/C=N/NC(=O)COc2cccc3ccccc23)c(C(=O)O)c1OC,-17%
Cc1cc(C)cc(OCC(=O)Nc2ccncc2)c1,11%
COc1ccccc1CNS(=O)(=O)c1cc(Br)cc2c1N(C(=O)C1CC1)CC2,1%
O=C(O)C/C(=C\c1ccc(Cl)cc1)c1nc2ccccc2o1,12%
Cc1ccc(C(=O)CSc2nc3ccccc3c(=O)n2-c2ccccc2)s1,9%
CCOc1ccc(NC(=O)Cn2ncc3c2-c2cc(C)ccc2OC3)cc1,2%
O=C(NCCCN1CCCC1=O)C(=O)NCC1OCCCN1S(=O)(=O)c1cc(F)ccc1F (configuration not stated),-2%
O=C1C(C2=C(O)c3ccccc3C2=O)=Nc2ccccc21,13µM*
COC(=O)CNC(=O)c1cc(-c2ccncc2)nc2c(C)c(Cl)ccc12,-1%
CCOc1ccc(CCNC(=O)C(C)n2nc(C)c3c(C)n(-c4ccccc4)nc3c2=O)cc1 (configuration not stated),0%
COc1ccc(-n2c(=O)c3c4c(sc3n(Cc3ccc(C)cc3C)c2=O)CCC4)c(OC)c1,-11%
CCc1ccccc1N1C(=O)C(Cl)=C(N2CCOCC2)C1=O,u
